Screening data: PubChem BioAssay, ICCB-Longwood Screening Facility, Harvard Medical School
Sa helicase inh: inhibitors of S. aureus replicative helicase, primary screen, biochemical, fluorescence unwinding readout | replicative DNA helicase (DnaC/DnaB), Staphylococcus aureus | purified S. aureus helicase, fluorescence unwinding assay; about half of the hits fall short of the stated cut | inhibition, %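 (tested at about 80 µM)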 | 120,000 compounds, 0.05% hits | AID 485395, 2010;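 active = both duplicates at 50% or more, or one of them with a favoured structure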;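 also: 0% = mean of negative control wells and 100% = mean of positive control wells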
MgrA-DNA mod: S. aureus MgrA activity modulators, primary screen, biochemical, S. aureus Newman, fluorescence polarization | MgrA-DNA binding | inhibition, %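 (about 10 µg/mL by stock and volumes)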 | 84,000 compounds, 0.13% hits;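 active = above 50% in either of two replicates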;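 also: 0% = protein plus DNA without compound and 100% = DNA alone without protein; higher means less MgrA bound to DNA so lower polarization; one replicate is shown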
The depositor's hits bear a star; . = no result given; & = joins results of further samples.

Molecule	MgrA-DNA mod	Sa helicase inh
Cc1ccc(N2CN=c3s/c(=C4\C(=O)N(C)c5ccccc54)c(=O)n3C2)cc1	.	0.0
CCCCNC1=NCCCS1	.	14.0
CCC(C(=O)NCc1ccco1)n1nc(-c2ccc(OC)cc2)ccc1=O (centres undefined)	.	14.0
Cc1ccc(C(=O)Nc2nnc(CCS(=O)(=O)c3ccc(Br)cc3)s2)cc1	-1.4	.
CC(C)(C)c1ccc(-c2cc(N)n[nH]2)cc1	4.1	.
CCOC(=O)c1cccc(NC(=O)N2CCSc3ccccc32)c1	.	6.0
Nc1nonc1-n1nnc(C(=O)O)c1-c1ccccc1	-1.2	2.0
COC(=O)C(Cc1ccccc1)NS(=O)(=O)c1ccc(OC)cc1 (centres undefined)	.	-10.0
CN(C)S(=O)(=O)c1ccc(C(=O)OCC(=O)Nc2ccccc2)cc1	.	-3.0
CCN1C(=O)CN(c2ccccc2)C1=S	-2.2	16.0
CCCn1c(CSc2ncccn2)nc2cc(S(=O)(=O)N3CCOCC3)ccc21	.	1.0
CCn1c(SCC(=O)OC)nnc1-c1ccc(O)cc1	4.0	0.0
Nc1c(C(=O)Nc2ccccc2)c2nc3ccccc3nc2n1/N=C/c1ccco1	.	-3.0
N#Cc1sc2nc(-c3ccccc3)cc(C(F)(F)F)c2c1N	4.2	-15.0
O=S(=O)(NCc1ccccc1)c1ccccc1F	-2.8	-21.0
COc1ccc(CC(=O)OCC(=O)NC2CCCCC2)cc1	.	-12.0
Cc1nnc2sc(-c3ccc(NC(=S)NC(=O)c4cccs4)cc3)nn12	-0.3	5.0
O=C1CN(S(=O)(=O)c2ccc3c(c2)Cc2ccccc2-3)CC(=O)N1	-2.1	17.0
N#Cc1ccc(COC(=O)CN2C(=O)CSc3ccccc32)cc1	.	-17.0
O=C(O)CSc1nc2ccccc2nc1SCC(=O)O	.	16.0

Of the compounds above, these contain four or more nitrogen atoms.
Molecule	MgrA-DNA mod	Sa helicase inh
Cc1ccc(N2CN=c3s/c(=C4\C(=O)N(C)c5ccccc54)c(=O)n3C2)cc1	.	0.0
Nc1nonc1-n1nnc(C(=O)O)c1-c1ccccc1	-1.2	2.0
CCCn1c(CSc2ncccn2)nc2cc(S(=O)(=O)N3CCOCC3)ccc21	.	1.0
Nc1c(C(=O)Nc2ccccc2)c2nc3ccccc3nc2n1/N=C/c1ccco1	.	-3.0
Cc1nnc2sc(-c3ccc(NC(=S)NC(=O)c4cccs4)cc3)nn12	-0.3	5.0

Going on with the list.
Molecule	MgrA-DNA mod	Sa helicase inh
CC(C)C(=O)Nc1ccc(-c2nc3ccccc3c(=O)[nH]2)cc1	1.5	9.0
CN(C)S(=O)(=O)c1ccc(S(=O)(=O)N2CCN(CCC#N)CC2)cc1	.	7.0
CC(C)(C)C1=CC(=O)C(N2CCN(Cc3ccccc3)CC2)=CC1=O	.	21.0
O=C(Cn1cnnn1)Nc1cc(C(F)(F)F)ccc1NC1CCCCC1	.	11.0
CC(Nc1nn2nnnc2c2ccccc12)c1ccccc1 (centres undefined)	.	-28.0
CCc1nnc(/N=C/c2cc(-c3ccccc3)oc2O)s1	.	-3.0
CN1C(=O)c2cccc(NC(=O)c3ccccc3)c2C1=O	-1.3	20.0
COc1ccc(-c2cn[nH]c2-c2ccc(OC)cc2)cc1	-0.7	.
CC(C)(C)C1CCC2(CC1)C(C#N)=C(SCC(=O)NC1CCCCC1)NC(=O)C2C#N (centres undefined)	0.2	9.0
COc1ccc(OC)c(/C=N/NC(=S)NCCc2ccccc2)c1	2.9	.
CCn1c(=N)c(C(=O)OC)cc2c(=O)n3cc(C)ccc3nc21	.	-28.0
O=S(=O)(c1cccc(-c2nnco2)c1)N1CCCC1	.	9.0
CCCNS(=O)(=O)c1cc(Br)cc2c1N(C(=O)CC)CC2	-1.0	15.0
Cc1ccc(-n2c(C)cc(CO)c2C)cc1	-1.4	7.0
CCOc1ccc(S(=O)(=O)c2c(C(=O)c3ccc(C)c(C)c3)cnc3ccc(F)cc23)cc1	0.9	6.0
CCOC(=O)Cn1nc(-c2ccccc2)c2cnc3ccc(CC)cc3c21	0.9	1.0
CCN1CCN(C(=O)/C=C\C(=O)O)CC1	0.7	-7.0
Cc1c(CN2CCSCC2)c(=O)n(-c2ccccc2)n1C	-2.3	.
CS(=O)(=O)Cc1nc2ccccc2[nH]c1=O	1.1	.
CC(=O)N1CC(C)Oc2ccc(S(=O)(=O)N(Cc3ccccc3)C(C)C)cc21 (centres undefined)	.	-23.0
O=C(Cn1nnc(-c2ccccc2)n1)N1CCCCC1	1.8	1.0
O=C(c1cc2c(s1)-c1ccsc1CC2)N1CCN(c2ccccc2)CC1	.	-3.0
O=c1c(=NNc2ccccc2)c(=O)c2ccccc12	1.2	.
Cn1c(=Nc2ccc(N3CCOCC3)cc2)ccc2ccccc21	-0.8	6.0
CCCc1nc2ccccc2n1CC(=O)c1ccc(F)cc1	-0.4	-19.0
O=c1cc(CN2CCN(c3ccc(F)cc3)CC2)occ1OCC1OCCO1	.	6.0
FC(F)(F)c1cnc2c(-c3ccc(Cl)cc3Cl)onc2c1	3.1	.
Cc1cc(C(=O)Cn2cnnc2C#N)c(C)n1CCc1ccc(Cl)cc1	.	25.0
CCn1nc(C)c(NC(=S)Nc2ccc(OC)c(OC)c2)c1C	-1.1	7.0
CCCCCOc1ccc(NC(=O)C(C)(C)C)cc1	.	-15.0
CC(C)CCNc1nc2ccccc2n2cnnc12	1.0	5.0
Cc1ccc(NC(=O)CCc2ccc(C)o2)cc1	.	-20.0
C[C@H](NC(=O)c1ccc(F)cc1)c1nc2ccccc2[nH]1	.	-10.0
O=c1[nH]nc(SCc2cscn2)n1CCc1ccccc1	.	-3.0
Cc1n[nH]c(C)c1CCNC(=O)Nc1ccccc1-c1ccccc1	-0.7	7.0
O=C(O)c1cc2cccc([N+](=O)[O-])c2[nH]1	19.0	.
CN(Cc1ccccc1)C1(O)C(=O)Nc2ccc(Br)cc21 (centres undefined)	0.2	-2.0
Cc1ccc(-n2nc3c(c2NC(=O)C2CCCC2)CS(=O)C3)cc1 (centres undefined)	.	17.0
CC(C)CCN(C)C1CCN(C(=O)Nc2ccc(Cl)c(Cl)c2)CC1	0.4	14.0
FC(F)(F)c1ccc(Cl)nc1Cl	.	26.0

An excerpt from above in order of their number in MgrA-DNA mod, highest first.
Molecule | MgrA-DNA mod
CC(C)CCNc1nc2ccccc2n2cnnc12 | 1.0
CC(C)CCN(C)C1CCN(C(=O)Nc2ccc(Cl)c(Cl)c2)CC1 | 0.4
Cn1c(=Nc2ccc(N3CCOCC3)cc2)ccc2ccccc21 | -0.8

(cont.)
Molecule	MgrA-DNA mod	Sa helicase inh
CCOc1ccc(C2=NC3(CCN(C(C)C)CC3)NC(c3cc(Cl)ccc3O)C2)cc1 (centres undefined)	0.7	8.0
COc1ccccc1NC(=O)CSc1nnc(-c2cc3sccc3n2C)n1-c1c(C)cc(C)cc1C	.	-3.0
CC(C)(C)c1cc(SCCC#N)cc(C(C)(C)C)c1O	.	-29.0
CCN(CC)S(=O)(=O)c1ccc(C(=O)NCC(=O)Nc2nc3ccccc3[nH]2)cc1	.	-9.0
CCOC(=O)c1ccc2c(N)c(-c3cccnc3)sc2n1	5.3	20.0
CCOC(=O)N1CCN(C(=O)N2c3ccccc3Sc3ccccc32)CC1	.	1.0
CCOC(=O)Cn1cc2c(c1-c1ccccc1Br)c(=O)n(C)c(=O)n2C	.	3.0
Cc1cc2cc3c(cc2nc1SCC(=O)OC(C)C)OCO3	15.0	5.0
O=S(=O)(NCc1ccco1)c1ccc(-c2ccc(S(=O)(=O)NCc3ccco3)cc2)cc1	6.4	21.0
O=c1cc(CSc2nc3c(sc(=S)n3Cc3ccco3)c(=O)n2-c2ccccc2)c2ccc(O)cc2o1	.	8.0
COC(=O)c1ccc2c(=O)n(CCc3ccc(S(N)(=O)=O)cc3)c(SCC(=O)Nc3ccc(N(C)C)cc3)nc2c1	-1.8	.
CCc1ccc(C(=O)CC2(O)C(=O)N(C(C)C)c3ccccc32)cc1 (centres undefined)	-2.5	5.0
Nc1ncnc2nc(N3CCCC3)ncc12	-0.8	.
Cc1ccc(NC(=O)Cn2cnc3onc(C)c3c2=O)cc1C	.	-4.0
COc1cccc2cc(-c3cc(=O)oc4ccc(OC(=O)N5CCOCC5)cc34)oc12	.	5.0
Cc1cccc(NC(=O)CC2CC3CCC2C3)c1 (centres undefined)	-0.1	4.0
O=C(/C=C/c1ccccc1)NC1CCCc2ccccc21 (centres undefined)	-0.6	-3.0
CCc1ccc(-c2cc3c(=O)n(CC(=O)NC(C)CCc4ccccc4)nc(C)n3n2)cc1 (centres undefined)	-2.5	-2.0
COc1ccc(Cl)cc1S(=O)(=O)NC1Cc2ccccc2C1	1.4	.
CCOC(=O)C1CCCN(C(=O)CCc2nc3ccccc3s2)C1 (centres undefined)	.	12.0
CC(C)C(CC(=O)O)NCc1ccccc1Cl (centres undefined)	0.7	10.0
CCC(=O)Nc1sc2c(c1C#N)CC(C)(C)NC2(C)C	-0.6	10.0
C=CCn1c(C#N)c(N)sc1=N	0.3	12.0
CCCCc1cc(=O)oc2cc(OC(C)=O)cc(OC(C)=O)c12	0.1	2.0
CC(=O)NC(C)(C)COc1ccc(Cl)cc1	-2.4	-8.0
Cn1c([N+](=O)[O-])cnc1COC(N)=O	1.2&1.5	.
Cc1nccn1CC(=O)N/N=C/c1ccc(O)c(O)c1	.	4.0
N#Cc1ccc(COC(=O)COc2ccccc2)cc1	0.9	-19.0
S=c1[nH]c2cc(Cl)c(Cl)cc2[nH]1	2.1	.
COc1cc(Cl)c(C)cc1NC(=O)NCc1noc2ccc(C)cc12	-1.3	11.0
N#Cc1c(N2CCCC2)nc(-c2ccccc2)c2c1CCCC2	.	14.0
CS(=O)(=O)c1ccc(C#N)cc1	2.8	.
O=c1[nH]ncc(NCC2CCCO2)c1Cl (centres undefined)	1.2	-1.0
Cc1cc(NCC(=O)Nc2ccc(N3CCOCC3)cc2)ccc1Br	.	41.0
COc1ccc(-n2c(SC3CCOC3=O)nc3ccccc32)cc1 (centres undefined)	.	-9.0
c1ccc(CCCn2cnc3ccccc32)cc1	-2.2	-3.0
COC(=O)C(C)N1C(=O)S/C(=C/c2cccn2C)C1=O (centres undefined)	-0.8	11.0
O=C(/C=C/c1cccs1)N(CC1CCCO1)C1CCS(=O)(=O)C1 (centres undefined)	.	7.0
Cc1cc(=O)oc2cc(OCC(=O)NCC3CCCO3)ccc12 (centres undefined)	.	4.0
CSCC(CSC)OC(=O)Nc1ccc(Cl)cc1	.	-9.0
N#CCCn1c(-c2cncs2)nc2ccccc21	0.4	2.0
COc1ccc(Cl)cc1NC(=O)CN1C(=O)CC(c2ccccc2)S(=O)(=O)c2ccccc21 (centres undefined)	-0.9	0.0
COC(=O)c1ccc(CSc2nc(-c3ccc(OC)cc3)nc3c2c(=O)n(C)c(=O)n3C)o1	.	2.0
Nc1ccc(Cl)cc1-c1ncon1	-1.4	.
COCc1[nH]c(=S)[nH]c(=O)c1Cc1c(F)cccc1Cl	6.9	.
O=C(COc1ccccc1)Nc1cccc(-c2nc3ncccc3o2)c1	.	3.0
O=C(CC1SC(=NCc2ccccc2)NC1=O)NC1CC1 (centres undefined)	.	-9.0
C1=C2CCc3c([nH]c4ccccc34)C2N(c2ccccc2)N1 (centres undefined)	0.7	4.0
SCCNc1n[nH]c(Nc2ccccc2)n1	.	-17.0
CCOc1ccccc1NC(=S)N(Cc1c[nH]c2ccccc12)C(C)C	-0.1	9.0
Cc1ccc2[nH]c3nc(NN)nnc3c2c1	0.7	19.0
O=C(c1cccc(F)c1)N1CCN(CCO)CC1	.	14.0
COc1ccc(CCNCC(O)Cn2c3c(c4ccccc42)CCN(C)C3=O)cc1OC (centres undefined)	.	-9.0
COC(CNC(=O)c1cccc2c1C(=O)N(Cc1cccnc1)C2)OC	-1.4	3.0
O=C(Nc1ccc(NC(=O)c2ccc(Br)c(S(=O)(=O)N3CCCCC3)c2)cc1)c1ccccc1	-0.4	.
Cc1cc2c(n1-c1ccc(C(=O)NC(C)c3ccccc3)cc1)CCCC2 (centres undefined)	0.2	-3.0
COc1ccc(CN2CCCC(C(N)=O)C2)cc1 (centres undefined)	2.8	1.0
Oc1ccccc1-c1nnc(SCc2ccccc2)n1-c1ccccc1	1.0	11.0
CC(=O)Nc1ccc2c(c1)CCC2=O	.	1.0
O=C(CCN1C(=O)C2C3C=CC(C3)C2C1=O)NC1CCCc2ccccc21 (centres undefined)	.	-4.0

Additional records follow:
Molecule	MgrA-DNA mod	Sa helicase inh
CN(CCN)Cc1ccccc1	.	2.0
COC(=O)C1=NNC(C(=O)OC(C)(C)C)C1c1ccccc1 (centres undefined)	-3.0	-10.0
c1csc(-c2ccn3cnnc3n2)c1	.	-18.0
CC(C)NC(=O)CCc1nnc2ccc(N3CCCC3)nn12	.	-7.0
CCCCc1c(O)c2cnn(-c3ccccc3)c2[nH]c1=O	-0.7	.
O=C(C1CC1)N1CCN(CN2C(=O)NC(Cc3ccccc3)(Cc3ccccc3)C2=O)CC1	.	9.0
CCc1ccc(NC(=O)c2cc3cc4ccc(C)cc4nc3o2)cc1	-1.4	11.0
O=C(CN1CCCc2ccccc21)NC(=O)NC1CCCCC1	.	9.0
O=C(CCCCn1c(=O)[nH]c2ccsc2c1=O)NCc1cccnc1	.	-29.0

A portion of the library, so the mix of outcomes need not match the whole.
